Screening data (PubChem)
Sa RN4220 lethal: S. aureus RN4220 growth inhibition. OD600, 16 h. inhibition, % (test concentration not listed). 0.33% of 330,000 active. AID 1259311;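 active means z-score of -3 or lower and OD600 up to 0.18 on both plates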;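 further: plate controls were untreated cells for no effect and reference antibiotic for full effect; stock transfer was 100 nL into about 80 µL; one replicate is shown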
Autofluor counter: compound fluorescence in toxin protease inhibitor counterscreen | compound autofluorescence counterscreen, microsphere flow cytometry; active compounds read high | fluorescence intensity (test concentration not listed) | 3.1% of 360,000 active | AID 624483;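 active means at least 3 SD above the mean of all compounds, about 16000 in these data; inconclusive means too few beads counted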;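 further: 100 nL of 1 mM stock went into each well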
Sa ugtP lethal: kills S. aureus RN4220 lacking UgtP | S. aureus RN4220 ugtP deletion, OD600 growth, 16 h; some inactives read as strong as hits | growth inhibition, % (no concentration beside the values) | 0.54% of 330,000 active | AID 1259309;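 active means z-score under -3 and OD600 up to 0.15 on both plates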;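 further: plate controls were untreated wells for no effect and antibiotic for full effect; wells of about 80 µL received 100 nL stock; the first replicate is given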
Mtb hypoxia rep: inhibitors of hypoxia-regulated fluorescent reporter in Mycobacterium tuberculosis | M. tuberculosis hypoxia-regulated fluorescent reporter, fluorescence | fluorescence inhibition, % (concentration not given with the values) | 0.1% of 300,000 active;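 active means 35 to 45% if threefold the growth effect, above 45% if 1.5-fold the growth effect; inactive means the rest, general growth blockers included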;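 further: wells of about 50 µL received 100 nL stock; 0% = vehicle wells and 100% = reference inhibitor wells; whole bacteria with a GFP reporter of the hypoxia response; strong numbers were not always called active; many hits fall short of the cut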
BJeLR lethal: BJeLR cell viability loss; BJeLR (HRASV12) viability, CellTiter-Glo ATP luminescence, 48 h; reference of the scale not given here; inhibition, % (test concentration not listed); 0.17% of 300,000 active;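 active means replicate mean above 50%; inconclusive means above 50% but judged a plate artefact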;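 further: 50 nL library stock added to about 25 µL; numbers are from one replicate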
PrP 5UTR inh: suppresses PrP 5' UTR mRNA reporter expression. cell-based PrP 5' UTR mRNA reporter, plate reader. inhibition, % (test concentration not listed). 0.35% of 340,000 active. AID 488862;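 active means every replicate at 50% or more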;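 further: 0 = median of the neutral control wells; tested in H4 reporter cells; numbers are from one replicate; inactives centre near -14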
Mtb hypoxia rep growth: also measured in Mtb hypoxia rep; calls as there; growth inhibition, %; measured here: M. tuberculosis growth (absorbance);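 0% = vehicle and 100% = reference antibiotic; read after six days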
The depositor's hits bear a star; ? = inconclusive; / = no result given. No enrichment for hits (roughly 4% active in at least one column).

Start of the listing, in advance (22 entries):
SMILES	Sa RN4220 lethal	Autofluor counter	Sa ugtP lethal	Mtb hypoxia rep	Mtb hypoxia rep growth	BJeLR lethal	PrP 5UTR inh
CC(C)c1cc(C(N)=O)c(NC(=O)c2cccc(COc3ccc(Cl)cc3)c2)s1	-4.5	3458	12	-5	14	7	-39
CC(CCc1ccccc1)NC(=O)CC(C)c1ccccc1 (centres undefined)	1.6	3926	6	8	6	12	-21
COc1ccccc1/C=N/n1nnnc1N	/	3682	/	/	/	9	-9
Cc1cccc(N2C(=O)CC(=O)NC2=O)c1	0.6	4197	5	/	/	-1	0
O=C(C1=NNC2C(=O)N(c3ccccc3)C(=O)C12)c1nc(Cl)ccc1Cl (centres undefined)	3.0	6547	9	4	6	0	-25
Cc1cccn2c(=O)c3cc(C(=O)N4CCCCC4)sc3nc12	7.6	5332	13	8	14	-3	-26
C=C1CCN(C(CC(C)C)C(=O)NCc2cc(OC)c(OC)c(OC)c2)S(=O)(=O)c2ccccc21 (centres undefined)	2.2	/	3	9	12	/	/
CCn1c(=O)c(C(=O)NCc2ccccc2Cl)c(O)c2ccccc21	0.9	3425	28	-4	6	2	-5
O=C(c1ccc([N+](=O)[O-])cc1)N(C1=NCCCCS1)c1ccccc1	-3.4	9252	-10	4	11	-14	-14
COc1ccc(NC(=S)N2CCc3ccccc3C2)cc1	5.0	2623	3	8	2	10	-11
O=C(NCc1cccnc1)C(=O)N/N=C/c1ccc([N+](=O)[O-])cc1	/	3363	/	/	/	0	-29
CCN(Cc1ccccc1)C(=O)COC(=O)CNC(=O)c1ccc(C)s1	7.0	4504	12	4	5	0	-20
Cc1cc(=O)[nH]c(Sc2c(-c3ccccc3)c3ccccc3[nH]c2=O)n1	7.7	5490	5	12	9	3	-26
COc1ccccc1N1CCN(Cc2ccc(F)cc2)CC1	5.7	2731	2	-5	-10	-3	3
COCCc1nc2ccc(C(=O)NCc3cccc(-n4cccn4)c3)cc2o1	2.4	5773	4	0	14	2	9
COc1ccc(Oc2nc3ccccc3n3cccc23)cc1	-0.9	2649	21	/	/	-1	-14
Cc1cc(C)cc(NC(=S)NC2CC3CCCC(C2)N3C2CC2)c1 (centres undefined)	-5.4	4269	9	4	18	-6	-2
CCOc1ccc(NC(=O)CN(C)c2nnnn2-c2ccccc2)cc1OCC	2.5	8858	5	3	4	-1	-32
COc1cc(O)cc2c1C(=O)OC(C)CCCC(=O)CCC/C=C\2 (centres undefined)	/	5448	/	/	/	1	5
CC1CCCCC12NC(=O)N(CC(=O)N1CCN(S(=O)(=O)c3ccc4c(c3)CCC4)CC1)C2=O (centres undefined)	0.8	/	-1	-2	-2	/	-12
C=CCn1c(SCC(=O)NC2CCCC2)nc2c([nH]c3ccccc32)c1=O	1.5	5405	-2	0	1	0	-4
COc1ccc(S(=O)(=O)N2CCOCC2)cc1NC(=O)CSc1ncnc2ccccc12	2.0	3245	3	5	1	6	-32

The list itself (from the top)
SMILES	Sa RN4220 lethal	Autofluor counter	Sa ugtP lethal	Mtb hypoxia rep	Mtb hypoxia rep growth	BJeLR lethal	PrP 5UTR inh
CC(C)c1cc(C(N)=O)c(NC(=O)c2cccc(COc3ccc(Cl)cc3)c2)s1	-4.5	3458	12	-5	14	7	-39
CC(CCc1ccccc1)NC(=O)CC(C)c1ccccc1 (centres undefined)	1.6	3926	6	8	6	12	-21
COc1ccccc1/C=N/n1nnnc1N	/	3682	/	/	/	9	-9
Cc1cccc(N2C(=O)CC(=O)NC2=O)c1	0.6	4197	5	/	/	-1	0
O=C(C1=NNC2C(=O)N(c3ccccc3)C(=O)C12)c1nc(Cl)ccc1Cl (centres undefined)	3.0	6547	9	4	6	0	-25
Cc1cccn2c(=O)c3cc(C(=O)N4CCCCC4)sc3nc12	7.6	5332	13	8	14	-3	-26
C=C1CCN(C(CC(C)C)C(=O)NCc2cc(OC)c(OC)c(OC)c2)S(=O)(=O)c2ccccc21 (centres undefined)	2.2	/	3	9	12	/	/
CCn1c(=O)c(C(=O)NCc2ccccc2Cl)c(O)c2ccccc21	0.9	3425	28	-4	6	2	-5
O=C(c1ccc([N+](=O)[O-])cc1)N(C1=NCCCCS1)c1ccccc1	-3.4	9252	-10	4	11	-14	-14
COc1ccc(NC(=S)N2CCc3ccccc3C2)cc1	5.0	2623	3	8	2	10	-11
O=C(NCc1cccnc1)C(=O)N/N=C/c1ccc([N+](=O)[O-])cc1	/	3363	/	/	/	0	-29
CCN(Cc1ccccc1)C(=O)COC(=O)CNC(=O)c1ccc(C)s1	7.0	4504	12	4	5	0	-20
Cc1cc(=O)[nH]c(Sc2c(-c3ccccc3)c3ccccc3[nH]c2=O)n1	7.7	5490	5	12	9	3	-26
COc1ccccc1N1CCN(Cc2ccc(F)cc2)CC1	5.7	2731	2	-5	-10	-3	3
COCCc1nc2ccc(C(=O)NCc3cccc(-n4cccn4)c3)cc2o1	2.4	5773	4	0	14	2	9

Not a retest: two of the compounds above.
SMILES	Sa RN4220 lethal	Autofluor counter	Sa ugtP lethal	Mtb hypoxia rep	Mtb hypoxia rep growth	BJeLR lethal	PrP 5UTR inh
CC(C)c1cc(C(N)=O)c(NC(=O)c2cccc(COc3ccc(Cl)cc3)c2)s1	-4.5	3458	12	-5	14	7	-39
CC(CCc1ccccc1)NC(=O)CC(C)c1ccccc1 (centres undefined)	1.6	3926	6	8	6	12	-21

Carrying on:
SMILES	Sa RN4220 lethal	Autofluor counter	Sa ugtP lethal	Mtb hypoxia rep	Mtb hypoxia rep growth	BJeLR lethal	PrP 5UTR inh
COc1ccc(Oc2nc3ccccc3n3cccc23)cc1	-0.9	2649	21	/	/	-1	-14
Cc1cc(C)cc(NC(=S)NC2CC3CCCC(C2)N3C2CC2)c1 (centres undefined)	-5.4	4269	9	4	18	-6	-2
CCOc1ccc(NC(=O)CN(C)c2nnnn2-c2ccccc2)cc1OCC	2.5	8858	5	3	4	-1	-32
COc1cc(O)cc2c1C(=O)OC(C)CCCC(=O)CCC/C=C\2 (centres undefined)	/	5448	/	/	/	1	5
CC1CCCCC12NC(=O)N(CC(=O)N1CCN(S(=O)(=O)c3ccc4c(c3)CCC4)CC1)C2=O (centres undefined)	0.8	/	-1	-2	-2	/	-12
C=CCn1c(SCC(=O)NC2CCCC2)nc2c([nH]c3ccccc32)c1=O	1.5	5405	-2	0	1	0	-4
COc1ccc(S(=O)(=O)N2CCOCC2)cc1NC(=O)CSc1ncnc2ccccc12	2.0	3245	3	5	1	6	-32
CCc1nnc(NC(=O)CSc2nnnn2-c2cccc(C(=O)OC)c2)s1	10	2761	6	/	/	16	-2
COC(=O)[C@H]1[C@@H](C)N(Cc2ccccc2)C(=O)N[C@H]1c1cccc(C(F)(F)F)c1	/	3074	/	/	/	5	6
COc1ccc(CNC(=O)COC(=O)C2CCN(S(=O)(=O)c3ccccc3C(F)(F)F)CC2)cc1	4.6	8843	9	16	10	1	-24
CCc1sc(C(=O)N2CCN(S(C)(=O)=O)CC2)cc1Br	-1.7	23583*	-6	1	6	-4	0
Cc1cc(C(F)F)nn1CC(=O)Nc1cc([N+](=O)[O-])ccc1F	6.9	7649	-3	6	7	-2	-5
COc1ccc(N2C(=O)CSC2c2ccccc2F)c(OC)c1 (centres undefined)	5.2	4488	12	6	1	3	-5
CCN(CC)S(=O)(=O)c1ccc(N2CCCCC2)c(C(=O)Nc2ccccc2N2CCOCC2)c1	3.9	3294	6	/	/	-2	-22
COc1ccccc1CCC(=O)OCC(=O)Nc1c(C)nn(-c2ccccc2)c1C	2.3	5412	0	-1	14	-4	-8
COc1ccc(OC)c(-n2c(=S)[nH]c3c(sc(=S)n3-c3ccccc3C)c2=O)c1	2.2	4003	5	-4	-6	0	-14
Cc1ccccc1-n1c(SCC(=O)Nc2ccccc2)nc2nc3c(cc2c1=O)CCCC3	-0.6	2082	15	11	10	5	-13
O=C(c1cc2cc(Br)cc(Br)c2oc1=O)N1CCOCC1	2.9	3819	1	6	9	0	-49
CN(C)C(CNC(=O)c1cccs1)c1cccnc1 (centres undefined)	3.8	6415	5	6	-5	-3	-15
Cc1ccccc1C(=O)NCC(=O)OCC(=O)NC(C)C1CC2CCC1C2 (centres undefined)	12	3628	4	4	2	/	-43
COc1ccc2nc(SCC(=O)Nc3ccccc3)[nH]c2c1	7.1	2049	2	13	7	-13	-15
O=C1S/C(=C\c2ccc(O)c([N+](=O)[O-])c2)C(=O)N1Cc1cccc([N+](=O)[O-])c1	/	3639	/	/	/	12	-30
O=C(Nc1ccc2c(c1)OCCO2)c1ccc2ccccc2n1	0.9	4624	8	4	8	/	-98
COc1ccc(NC(=S)c2ccc(N(C)C)cc2)cc1	1.6	2331	5	2	0	7	-75
Cc1c(N=Cc2ccc(O)c(Br)c2)cccc1[N+](=O)[O-]	5.1	10127	1	6	17	-3	-4
CS(=O)(=O)N1CCCC(C(=O)Nc2ccc(Br)cc2F)C1 (centres undefined)	8.2	4635	-5	4	7	-2	-10
Cc1c(NC(=O)CN2C(=O)c3ccccc3C2=O)c(=O)n(-c2ccccc2)n1C	-12	3064	-3	-3	-3	-6	0
Cc1ccc(S(=O)(=O)Nc2cc(C(C)C)c(O)cc2C)cc1	7.6	10314	-9	4	15	-9	7
Cc1ccc(S(=O)(=O)N(C)CCCC(=O)N2CCCCC2)cc1	4.5	3936	0	-4	-2	-9	-13
Cc1nn(-c2ccc(C(=O)O)cc2)c(N)c1-c1ccccc1	4.4	3781	1	/	/	10	-101
c1ccc(-c2cn3c(n2)SCC3)cc1	-5.6	/	-8	9	7	-1	-4
COC(=O)C(NC(=O)COc1ccccc1)(Nc1nc2c(s1)CCCC2)C(F)(F)F (centres undefined)	6.6	3932	1	17	9	-5	-32
Cc1cccc(C)c1NC(=O)N1CCC(n2cnc3ccccc32)CC1	2.3	8726	-4	7	5	-5	-28
CCCS(=O)(=O)c1nnnn1-c1cccc(OC)c1	16	19154*	42	17	18	3	10
COC(=O)c1ccc(CSC2=NCCS2)cc1	8.0	2909	1	1	11	6	-55
CS(=O)(=O)c1ccc(C2=C(c3ccccc3)C(=O)OC2)cc1	0.8	5889	-3	-7	4	-6	-16
CCN(CC)CCCC(C)NC(=O)c1cccc(S(=O)(=O)N2CCc3ccccc32)c1 (centres undefined)	4.3	4515	1	0	-1	-4	-2
O=c1c2ccccc2nc(-c2ccc(Br)cc2)n1Cc1ccccc1	-5.6	9616	70	10	7	-12	-26
C/C(C=NN1CCN(c2ccccc2)CC1)=C\c1ccco1	1.7	/	32	2	-1	/	/
COC(=O)c1cc(C(=O)OC)cc(-n2c(C)cc(C(=O)COC(=O)CNS(=O)(=O)c3ccc(C)cc3)c2C)c1	6.3	2705	-8	4	3	11	-133
CC12CCC3(CO)COC(c4ccccc4O1)C2C3 (centres undefined)	-0.2	4036	-2	-4	3	-9	0
C/C(=N\NC(=O)CNC(=O)c1cccc(F)c1)c1ccc2ccccc2c1	/	4462	/	/	/	-2	-9
O=C(COc1ccc([N+](=O)[O-])cc1)NNC(=O)c1cccs1	2.8	4418	7	3	12	1	-21
CC(C)(C)OC(=O)CNC(=O)c1nc[nH]c1C(=O)NCc1ccc(CNC(=O)OC(C)(C)C)cc1	7.9	3020	6	9	8	-1	-8
Cc1ccc(CONC(=O)c2ccc([N+](=O)[O-])cc2)cc1	2.8	4534	-1	5	-1	/	-9
C=CCn1c(=O)c2ccccc2n2c(SC(C)C(=O)Nc3nc(-c4ccccc4)cs3)nnc12 (centres undefined)	0.4	3426	8	/	/	-6	-1
Cc1cc(-c2nnc(CCC(=O)NCc3ccc(OC(F)(F)F)cc3)o2)no1	-0.7	6206	2	-10	-1	6	0
CCc1ccc(OCC(=O)NNC(=O)c2cc(S(=O)(=O)N(C)C)ccc2N2CCCC2)cc1	3.3	?	4	8	2	-1	2
O=C(c1cccs1)N(c1ccc(F)cc1)C1C=CS(=O)(=O)C1 (centres undefined)	1.9	2609	9	7	11	-8	-18
c1coc(-c2nc3ccccc3s2)c1	3.3	4060	10	3	3	/	-74
CCOc1cccc(-c2nc(C(N)=O)c3[nH]c(=O)n(-c4cccc(Cl)c4)c3n2)c1O	9.1	5285	0	-3	9	2	-29
FC(F)(F)c1nnc2sc(-c3ccccn3)nn12	2.8	4464	4	2	1	-9	-14
Cc1ccc(-c2cn3cccnc3n2)cc1	3.3	4386	3	15	-1	0	-67
